Screening results: PubChem, several laboratories
BJeLR viability: MLPCN primary cell-based screen for lethality selective to Ras in HRASV12 cells; BJeLR (HRASV12) viability, CellTiter-Glo ATP luminescence, 48 h; reference of the scale not given here; inhibition, % (concentration not given with the values); 300,000 compounds, 0.17% hits; AID 1554, 2009;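 active means replicate mean above 50%; inconclusive means above 50% but judged a plate artefact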;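 further: 50 nL library stock added to about 25 µL; numbers are from one replicate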
Mtb hypoxia rep: PubChem AID 1159583; M. tuberculosis hypoxia-regulated fluorescent reporter, fluorescence; fluorescence inhibition, % (no concentration beside the values); 300,000 compounds, 0.1% hits;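 active means 35 to 45% if threefold the growth effect, above 45% if 1.5-fold the growth effect; inactive means the rest, general growth blockers included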;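 further: wells of about 50 µL received 100 nL stock; 0% = vehicle wells and 100% = reference inhibitor wells; whole bacteria with a GFP reporter of the hypoxia response; strong numbers were not always called active; many hits fall short of the cut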
Sa ugtP lethal: growth inhibition of ugtP-null S. aureus, primary screen, RN4220 ugtP deletion, OD600. 16 h; some inactives read as strong as hits. growth inhibition, % (concentration not given with the values). 330,000 compounds, 0.54% hits;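 active means z-score under -3 and OD600 up to 0.15 on both plates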;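 further: plate controls were untreated wells for no effect and antibiotic for full effect; wells of about 80 µL received 100 nL stock; the first replicate is given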
RN4220 kill: growth inhibition of S. aureus RN4220, primary screen, OD600. inhibition, % (concentration not given with the values). AID 1259311, 2017. 16 h. 330,000 compounds, 0.33% hits;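 active means z-score of -3 or lower and OD600 up to 0.18 on both plates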;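 further: plate controls were untreated cells for no effect and reference antibiotic for full effect; stock transfer was 100 nL into about 80 µL; one replicate is shown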
PrP UTR inh: inhibition of PrP 5' UTR reporter expression. cell-based PrP 5' UTR mRNA reporter, plate reader. inhibition, % (no concentration beside the values). 340,000 compounds, 0.35% hits;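 active means every replicate at 50% or more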;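 further: 0 = median of the neutral control wells; tested in H4 reporter cells; numbers are from one replicate; inactives centre near -14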
Autofluor counter: counter-screen for toxin protease inhibitors: compound fluorescence. compound autofluorescence counterscreen, microsphere flow cytometry; active compounds read high. fluorescence intensity (test concentration not listed). 360,000 compounds, 3.1% hits. AID 624483;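 active means at least 3 SD above the mean of all compounds, about 16000 in these data; inconclusive means too few beads counted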;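 further: 100 nL of 1 mM stock went into each well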
Mtb hypoxia rep growth: recorded beside Mtb hypoxia rep, whose call it bears; growth inhibition, %; measured here: M. tuberculosis growth (absorbance);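 0% = vehicle and 100% = reference antibiotic; read after six days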
Starred values were filed as active, the others as inactive; u = inconclusive; x = not tested or not shown; & = joins results of further samples.

mol	BJeLR viability	Mtb hypoxia rep	Mtb hypoxia rep growth	Sa ugtP lethal	RN4220 kill	PrP UTR inh	Autofluor counter
CCn1nccc1C(=O)Nc1cc(Cl)cc(Cl)c1	-3	-1	5	44	4.9	-17	4503
CCOc1ccc(S(=O)(=O)NN=C(C)c2ccc(OC)cc2OC)cc1	x	1	1	9	8.1	x	x
CCN(CC)N=Nc1ccc(S(=O)(=O)N2CCSC2C(=O)O)cc1 (centres undefined)	-3	2	-5	0	1.0	1	3678
O=C(Nc1ccnc(-c2cccnc2)n1)c1cccc(Cl)c1Cl	11	-7	-11	-5	-3.7	-6	22659*
Cc1nc(N2CCN(C(=O)CCC(=O)O)CC2)c2c(C)c(C)sc2n1	-2	4	-1	2	4.0	-11	11107
Cc1cccc(NC(=O)CNC(=O)c2cccc(S(=O)(=O)NCc3cccs3)c2)c1C	x	-1	7	0	0.4	8	8682
NNC(=O)/C(=C/c1cccs1)NC(=O)c1ccccc1Cl	0	-2	-7	7	5.4	-20	4743
O=C(NN=C1CCCCCC1)c1cc(-c2ccccc2)nc2ccccc12	-14	6	5	0	7.0	3	3533
CCc1nnc(NC(=O)CSc2nnc(COc3ccccc3)n2-c2ccc(C)cc2)s1	-6	1	-3	1	2.9	-13	4664
O=[N+]([O-])c1ccc(CN2CCN(c3ccc4ccccc4n3)CC2)cc1	1	9	12	1	2.6	-23	3152
CC(C)CNC(=O)COC(=O)c1cncc(Br)c1	0	-2	-7	-3	-2.5	-2	11376
O=C(CC(=O)N/N=C/c1cccs1)NCc1ccccc1	-8	x	x	x	x	-23	2504
Cc1ccnn1CCC(=O)O	-9	-3	9	8	1.4	-12	4507
CCCCCN1CN(S(=O)(=O)c2cccs2)c2nc3ccccc3nc21	2	5	5	2	3.7	-28	4429
CCCCc1nc2sc3c(=O)n(N)cnc3c2c2c1CCC2	-10	5	9	8	5.1	-16	2112
COC(=O)C(NC(=O)NCc1ccccc1Cl)C(C)C (centres undefined)	x	8	5	5	9.1	x	x
CC(=O)c1nn(-c2ccccc2)cc1C(=O)c1cccc(Br)c1	0	10	12	-3	3.9	0	1907
CCOc1ccc(NC(=O)Nc2cc(C(C)C)ccc2C)cc1	22	x	x	x	x	-9	4206
COc1cc(OC)c2cc(C(=O)N[C@H](C(=O)N3CCC[C@H]3C(=O)O)C(C)C)n(C)c2c1	9	x	x	6	0.2	-27	4744
C#CCOCCOCCOCCNc1nc(N2CCN(C(=O)C(C(C)O)n3cc(CCCCN)nn3)CC2)nc(N2CCN(C(=O)C(C(C)CC)n3cc(CCCCN)nn3)CC2)n1 (centres undefined)	x	8	13	4	2.9	x	x
Cc1ccc(S(=O)(=O)N2CCN(C(=O)CSc3ncc(C(F)(F)F)cc3Cl)CC2)cc1	-9	4	7	-23	-2.9	-25	3568
Cc1cc(=O)oc2cc(OCC(=O)NC(Cc3c[nH]c4ccc(O)cc34)C(=O)O)c(Cl)cc12 (centres undefined)	3	x	x	-4	3.0	-24	5452
CC1CCN(C(=O)COc2ccc3ccccc3c2Br)CC1	-8	x	x	x	x	-4	5595
CC(=O)Nc1ccc2c(c1)CC1(C(=O)N(C)C(=O)N(C)C1=O)C1CCCN21 (centres undefined)	-4	9	8	-10	2.1	-22	8985
COc1ccc(-n2ncc3c2CC(C)(C)CC3NC(=O)CSc2ccccn2)cc1 (centres undefined)	2	1	-6	14	5.6	-3	4177
COc1ccc(OCC(O)CNC(=O)/C=C/c2cccc([N+](=O)[O-])c2)cc1 (centres undefined)	-7	15	9	8	3.2	-10	2426
O=C1CCCN1CCC(=O)N1CCCC(Nc2ccc(F)cc2)C1 (centres undefined)	-10	11	-7	4	0.7	-13	6108
CN(C)c1ccc(C(O)c2cc3ccccc3s2)cc1 (centres undefined)	x	18	3	8	5.5	-40	4316
CCOc1ccc(OCCC(=O)N2CCN(S(=O)(=O)c3cccc(F)c3)CC2)cc1	4	-6	8	-3	1.1	3	u
Cc1ccc(S(=O)(=O)NCCC(=O)NC2CCN(Cc3ccccc3)CC2)cc1	-3	x	x	x	x	-14	u
CCC1SC(=NN=Cc2ccco2)N(Cc2ccc(F)cc2)C1=O (centres undefined)	x	7	2	14	1.5	x	x
CCn1c(=O)cc(OCC(=O)NC2CC2)c2ccccc21	5	-2	6	3	0.1	-31	5046
CC(=O)N1c2ccc(S(=O)(=O)N3CCCCC3)cc2CC1C (centres undefined)	10	x	x	x	x	-2	4351
CCN(CC)c1nc(N)n(CCSC(=S)N(C)C)c(=O)n1	9	1	7	-7	3.0	-19	4463
O=C1c2ccccc2C(O)(Cc2ccccc2)N1C1CCCCC1 (centres undefined)	0	6	10	-2	2.0	x	x
CCN1C(=O)C2C(c3ccc(C)cc3)N3C(=O)N(c4cccc(Br)c4)C(=O)[C@@]3(CC)C2C1=O (some centres undefined)	x	-6	4	-4	-1.4	x	x
CC12CCC3C(CCC4CC(=O)C(C(O)C(F)(F)F)CC43C)C1CCC2O (centres undefined)	x	9	5	30	-0.5	-14	2805
COc1cc(OC)c2c(C)cc(=O)oc2c1C(CCN1CCOCC1)c1ccc2c(c1)OCO2 (centres undefined)	6	12	22	-3	0.3	-11	3786
CC(=O)c1ccc(NC(=S)NN2C(C)CCCC2C)cc1 (centres undefined)	3	9	6	1	0.3	4	4145
CCOc1ccccc1CNS(=O)(=O)c1ccc(-c2cnc(C3CC3)o2)cc1	40	0	0	-1	10	-5	6704
CC1CN(c2ccc(NC(=S)NNCCC#N)cc2)CC(C)O1 (centres undefined)	1	6	-6	6	1.9	-56	6110
CCC(Oc1ccccc1)C(=O)Nc1nnc(S(=O)(=O)N2CCCC2)s1 (centres undefined)	3	-5	4	-3	2.0	-39	5817
C/C(=N\NC(=O)c1ccc(Cl)cc1)c1cccnc1	-4	x	x	x	x	-21	3562
CCN(CC)S(=O)(=O)c1ccc(OC)c(NC(=O)C2CC(=O)N(c3ccc4c(c3)OCCO4)C2)c1 (centres undefined)	-2	5	-30	11	0.0	-30	x
O=C(NCc1ccco1)c1ccc(Cn2c(=S)[nH]c3ccccc3c2=O)cc1	-1	9	2	-1	4.5	-1	5160

Next section, starting with the last 4 of the part before.
Values run as follows: BJeLR viability	Mtb hypoxia rep	Mtb hypoxia rep growth	Sa ugtP lethal	RN4220 kill	PrP UTR inh	Autofluor counter
CCC(Oc1ccccc1)C(=O)Nc1nnc(S(=O)(=O)N2CCCC2)s1 (centres undefined)
  3	-5	4	-3	2.0	-39	5817
C/C(=N\NC(=O)c1ccc(Cl)cc1)c1cccnc1
  -4	x	x	x	x	-21	3562
CCN(CC)S(=O)(=O)c1ccc(OC)c(NC(=O)C2CC(=O)N(c3ccc4c(c3)OCCO4)C2)c1 (centres undefined)
  -2	5	-30	11	0.0	-30	x
O=C(NCc1ccco1)c1ccc(Cn2c(=S)[nH]c3ccccc3c2=O)cc1
  -1	9	2	-1	4.5	-1	5160
COC(=O)c1cc(NS(=O)(=O)c2ccc(Cl)c(N3C(=O)c4ccc(C(=O)O)cc4C3=O)c2)cc(C(=O)OC)c1
  -5	9	5	3	2.8	-33	3651
O=C(/C=C\Nc1ccc(Br)cc1)c1cccnc1
  3	3	3	1	6.5	-142	2310
COc1ccc(N(CC(=O)N2CCN(C)CC2)S(C)(=O)=O)cc1OC
  -4	9	7	9	2.9	-14	6564
CCc1c(C)nc(SCC(=O)N2CCc3ccccc32)[nH]c1=O
  1	10	4	4	1.9	x	x
CC1(C)CC(Nc2ccc(Nc3ccccc3)cc2)CC(C)(C)N1
  -1	x	x	x	x	-7	2867
Cc1cccc(C2CC(c3ccc(F)cc3)Nc3nc(N)nn32)c1 (centres undefined)
  -5	x	x	3	5.4	-53	5818
COc1cccc(/C=N/NC(=O)c2c(-c3ccccc3)noc2C)c1O
  -1	x	x	x	x	10	2827
COCCNC(=O)CCCCCN1C(=O)CCC1=O
  -9	x	x	-2	4.6	10	4692
Cc1ccc2cc(CCNC(=O)c3cccs3)c(=O)[nH]c2c1C
  3	6	5	7	2.8	-53	4299
COc1ccccc1Oc1ccc(S(=O)(=O)Nc2cccnc2)cc1
  1	2	-3	-1	10	-11	21564*
CN1CCN(S(=O)(=O)c2ccc(Cl)cc2)CC1
  -8	2	-1	8	3.8	-28&-11	3891
COc1ccc(C(=O)CN2C(=O)NC3(CCCc4ccccc43)C2=O)c(OC)c1 (centres undefined)
  -6	-4	6	8	1.0	-16	6292
CCN(CC)CCNc1ncnc2c1sc1nc(N3CCOCC3)c3c(c12)CC(C)(C)SC3
  5	10	12	49	0.9	-4	16070
O=C(Nc1ccc(Cl)cc1)Nc1nnc(/C=C/c2ccccc2)s1
  6	3	-2	1	2.7	-10	4292
Cc1cc(C(=O)N/N=C/c2c(C)n(C)c3ccccc23)n[nH]1
  3	x	x	x	x	-23	2205
O=C(NCCCn1ccnc1)c1cc(-c2ccc3c(c2)OCO3)on1
  -2	7	3	-6	7.2	-17	20683*
Cc1ccccc1NC(=O)CN1CCC(C(=O)c2ccc3c(c2)OCCO3)CC1
  -6	-1	-3	13	-0.7	-6	4998
COC(=O)C1=C(c2cccc(C#N)c2)CC2CCC1N2C(=O)NCCOc1ccccc1Cl (centres undefined)
  x	6	11	-3	2.8	x	x
Cc1c(C(=O)N2CCOCC2)sc2ncnc(N3CCc4ccccc4C3)c12
  5	x	x	-4	-1.1	-3	2606
Cc1ccc(C=NNC(=O)Cn2nnc(N)n2)cc1
  x	-3	-9	10	2.8	x	x
O=C1NNC(c2ccccc2)=N/C1=C\c1ccco1
  -5	-14	-1	0	2.3	-25	x
S=C(NCc1ccco1)N1CCN(C(c2ccccc2)c2ccccc2)CC1
  4	5	4	4	0.2	-18	10736
CCC(=NCc1cccnc1)c1c(O)n(Cc2ccccc2)c(=O)[nH]c1=O
  x	4	8	-6	2.4	-24	19069*
COc1cn(-c2ccccc2)nc1C(=O)Nc1ccccc1
  2	17	6	-5	8.8	-44	5189
COc1cccc(-n2c(CN3CCN(C)CC3)nc3ccc([N+](=O)[O-])cc3c2=O)c1
  -8	2	3	2	4.3	1	2027

Hits appear at their usual frequency; about 4% have a hit in one of these screens.
